# BJeLR viability = BJeLR cell viability reduction; BJeLR fibroblasts viability, CellTiterGlo ATP luminescence, 48 h; HRASV12, hTERT and SV40 LT/ST transformed; viability loss activity score, % (test concentration not listed); actives 0.64% (n = 30,000); in the data active = viability loss activity score above about 50%; about a fifth of its hits are not listed in these tables;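 note: higher score means fewer live cells and less ATP luminescence; stock transfer was 50 or 100 nL into about 30 µL; 0% = vehicle wells and 100% = a reference killing control; one replicate is shown; the record names a cut of 85%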
# A1 inhib = blocks A1 activity; MEF A1-2A-BIM cells, caspase-Glo luminescence, 3 h; percent of clofoctol signal, DMSO as zero; actives 0.51% (n = 21,000); AID 2241; caspase activation, % (concentration not given with the values);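 active = most replicate scores above 10, or exactly half above 10 with mean activity above 10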;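 note: effector caspase 3 and 7 activity cleaving a DEVD luciferin substrate; 50 nL library stock added to about 30 µL; numbers are from one replicate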
# * marks the source's active call; other numbers are inactive results; . = not tested or not shown.
Structure,A1 inhib,BJeLR viability
COc1ccc(S(=O)(=O)Nc2cccc3c2O[C@H](CN(C)C(=O)Nc2cccc4ccccc24)[C@H](C)CN([C@@H](C)CO)C3=O)cc1,.,-1.1
C[C@@H]1CN([C@@H](C)CO)C(=O)c2cccc(NC(=O)c3nc4ccccc4s3)c2O[C@H]1CN(C)S(=O)(=O)c1cccs1,.,-4.8
COc1ccc(C(=O)Nc2ccc(Oc3ncnc4cc(Cl)ccc34)nc2)cc1,0.4,-0.1
O=C(O)Cc1nn(Cc2ccc(Br)cc2F)c(=O)c2ccccc12,0.3,-0.3
CCOC(=O)CN(C1=NS(=O)(=O)c2ccccc21)c1ccccc1,0.1,-4.7
Cc1ccc(S(=O)(=O)N(C)C[C@H]2Oc3ccc(NC(=O)Nc4ccc(C(F)(F)F)cc4)cc3C(=O)N([C@@H](C)CO)C[C@H]2C)cc1,-0.5,-1.4
O=C(NCCC1=CCCCC1)C1CCN(C(=O)c2cc3sccc3n2Cc2ccc(F)cc2)CC1,0.2,-3.5
C[C@@H]1CN([C@H](C)CO)C(=O)c2cc(NC(=O)CCN3CCOCC3)ccc2O[C@@H]1CN(C)Cc1ccncc1,-0.2,2.7
CCC(C(=O)NCc1ccccn1)c1ccccc1 (stereo unspecified),0.8,3.4
C[C@@H]1CN([C@H](C)CO)C(=O)c2cc(NS(=O)(=O)c3cn(C)cn3)ccc2O[C@H]1CN(C)S(=O)(=O)c1cn(C)cn1,-0.4,-0.1
C[C@@H]1CN([C@H](C)CO)C(=O)c2cc(N(C)C)ccc2O[C@H]1CN(C)Cc1ccc(Oc2ccccc2)cc1,-0.7,-0.1
O=C1C2Sc3[nH]c(=O)sc3C(/C=C/c3ccccc3)C2C(=O)N1c1ccc(Br)cc1 (stereo unspecified),0.1,-1.3
COc1ccc(S(=O)(=O)N(C)C[C@@H]2Oc3ccc(NS(=O)(=O)c4ccc(Cl)cc4)cc3C(=O)N([C@H](C)CO)C[C@H]2C)cc1,-0.4,1.8
Cc1cc(OCC(=O)N(Cc2ccc(C(C)C)cc2)C2CCS(=O)(=O)C2)cc(C)c1Cl (stereo unspecified),.,-4.4
CCOC(=O)c1cc2c(NC(C)=O)c(C(=O)OCC)sc2nc1C(F)(F)F,-0.8,4.9
Cc1noc(C)c1NC(=O)N(C)C[C@@H]1Oc2ccc(NC(=O)NC(C)C)cc2C(=O)N([C@@H](C)CO)C[C@@H]1C,1.1,-3.7
Fc1cccc(Cl)c1CSC1=NCCN1,-0.1,0.1
COc1ccc(S(=O)(=O)Nc2ccc3c(c2)C(=O)N([C@@H](C)CO)C[C@H](C)[C@H](CN(C)Cc2ccc(C(F)(F)F)cc2)O3)cc1,-0.3,-2.4
C[C@@H]1CN([C@H](C)CO)C(=O)c2cc(NC(=O)Nc3ccc4c(c3)OCO4)ccc2O[C@@H]1CN(C)Cc1ccc(Oc2ccccc2)cc1,0.1,-14.1
COc1c(C(C)C)cc2c(c1O)[C@]13CC[C@H](OC1=O)C(C)(C)C3CC2 (stereo partly specified),0.7,3.0
C[C@H]1CN([C@@H](C)CO)C(=O)c2cccc(NC(=O)Nc3ccc(F)cc3)c2O[C@H]1CN(C)Cc1ccc(Cl)c(Cl)c1,.,0.5
C[C@H]1CN([C@@H](C)CO)C(=O)c2cc(NC(=O)Nc3ccc(F)cc3)ccc2O[C@@H]1CN(C)Cc1ccc(C(=O)O)cc1,-0.2,2.2
CN(Cc1ccccc1)C(=S)NC(=O)c1ccccc1,0.1,-3.5
COc1ccc(CN(C)C[C@H]2Oc3ccc(NS(C)(=O)=O)cc3C(=O)N([C@H](C)CO)C[C@H]2C)cc1,-1.1,0.3
COc1ccc(NC(=O)N(C)C[C@@H]2Oc3c(NC(=O)c4ccc(-c5nccs5)cc4)cccc3C(=O)N([C@H](C)CO)C[C@@H]2C)cc1,.,-3.0
C[C@H](CO)N1C[C@H](C)[C@@H](CN(C)C(=O)Nc2cccc3ccccc23)Oc2ccc(NC(=O)Nc3ccccc3)cc2C1=O,0.4,-3.0
COc1ccc(CN(C)C[C@@H]2Oc3ccc(NS(=O)(=O)c4ccc(F)cc4)cc3C(=O)N([C@@H](C)CO)C[C@H]2C)cc1,0.3,0.4
O=C(NCc1ccc2c(c1)OCO2)C12CC3CC(CC(C3)C1)C2,0.5,-7.9
COc1cc(C2c3c(cc(OC)c(O)c3OC)CC(CO)C2COC2OC(CO)C(O)C(O)C2O)cc(OC)c1O (stereo unspecified),-0.1,0.7
COc1cc2nc(SCC(N)=O)n3nc(CCn4c(C)nc5ccccc54)nc3c2cc1OC,.,11.4
Cc1noc(C)c1S(=O)(=O)Nc1ccc2c(c1)C(=O)N([C@H](C)CO)C[C@H](C)[C@@H](CN(C)CC1CC1)O2,0.4,-3.9
CCOC(=O)CSc1nc2ccccc2c(=O)n1CCN1CCOCC1,0.0,-0.7
C[C@H](CO)N1C[C@H](C)[C@H](CN(C)Cc2ccc(Oc3ccccc3)cc2)Oc2c(NC(=O)Nc3ccc(F)cc3)cccc2C1=O,.,2.9
Cc1ccc(Oc2ncccc2NC(=O)CC(CC(=O)O)c2ccccc2)c2c1CCC2 (stereo unspecified),0.9,-4.3
CCOC(Cn1c2ccccc2c2ccccc21)OCC,-0.2,-0.1
Cc1noc(C)c1S(=O)(=O)Nc1ccc2c(c1)C(=O)N([C@@H](C)CO)C[C@H](C)[C@@H](CN(C)C(=O)Nc1cccc3ccccc13)O2,-0.5,1.5
O=C(NCc1ccco1)NC(=O)c1ccc(-c2csnn2)cc1,-0.6,-17.1
Cc1noc(C)c1NC(=O)N(C)C[C@@H]1Oc2c(NC(=O)C3CC3)cccc2C(=O)N([C@H](C)CO)C[C@@H]1C,.,-4.4
C[C@H]1CN([C@@H](C)CO)C(=O)c2cc(NC(=O)Cn3cnnn3)ccc2O[C@@H]1CN(C)Cc1ccc(-c2ccccc2)cc1,-0.1,2.5
Cc1ccc(/C=C/c2onc3c(=O)[nH]nc(C)c23)cc1,-0.3,5.6

# Among those listed so far, 4 contain two or more sulfur atoms:
Structure,A1 inhib,BJeLR viability
C[C@@H]1CN([C@@H](C)CO)C(=O)c2cccc(NC(=O)c3nc4ccccc4s3)c2O[C@H]1CN(C)S(=O)(=O)c1cccs1,.,-4.8
C[C@@H]1CN([C@H](C)CO)C(=O)c2cc(NS(=O)(=O)c3cn(C)cn3)ccc2O[C@H]1CN(C)S(=O)(=O)c1cn(C)cn1,-0.4,-0.1
O=C1C2Sc3[nH]c(=O)sc3C(/C=C/c3ccccc3)C2C(=O)N1c1ccc(Br)cc1 (stereo unspecified),0.1,-1.3
COc1ccc(S(=O)(=O)N(C)C[C@@H]2Oc3ccc(NS(=O)(=O)c4ccc(Cl)cc4)cc3C(=O)N([C@H](C)CO)C[C@H]2C)cc1,-0.4,1.8

# Remaining list, next part:
Structure,A1 inhib,BJeLR viability
CC(C)NC(=O)N(C)C[C@H]1Oc2ccc(NC(=O)C3CCCCC3)cc2C(=O)N([C@@H](C)CO)C[C@H]1C,0.3,1.7
C[C@@H]1CN([C@@H](C)CO)C(=O)c2cc(N(C)C)ccc2O[C@@H]1CN(C)Cc1ccc(-c2ccccc2)cc1,-0.2,-2.8
CC1CCCCN1S(=O)(=O)c1ccc(C(=O)Nc2cccc(-c3nc4ccccc4[nH]3)c2)cc1 (stereo unspecified),-0.3,11.5
O=C(NCCc1ccc(Cl)cc1)c1ccc2c(=O)n(-c3ccccc3)c(=O)[nH]c2c1,.,-1.2
Cc1nc2ccccn2c1-c1ccnc(SCC(=O)Nc2ccc(C(C)C)cc2)n1,0.0,-1.5
COc1ccc(C(C)C(=O)c2ccc(O)cc2O)cc1O (stereo unspecified),1.3,5.7
CCOC(=O)Nc1cccc2nsnc12,-2.7,-2.7
C[C@@H]1CN([C@H](C)CO)C(=O)c2cccc(NC(=O)C3CC3)c2O[C@@H]1CN(C)S(=O)(=O)c1ccc(F)cc1,.,-3.2
CS(=O)(=O)N(Cc1cc2ccccc2[nH]c1=O)c1ccccc1,0.7,-4.3
O=C(CN1C(=O)S/C(=C\c2ccc(Cl)cc2)C1=O)Nc1cccnc1,.,3.4
C=C1C(=O)O[C@H]2[C@H]1[C@@H](OC(=O)C(C)(O)C(C)Cl)C(OC(C)=O)/C(C(=O)OC)=C\CC[C@@]1(C)O[C@H]21 (stereo partly specified),1.9,84.9*
Cn1ccnc1SCC(=O)Nc1ccc(S(N)(=O)=O)cc1,-0.3,0.0
CC1CC(C)CN(CCCNC(=O)Cn2c3ccccc3c3cn[nH]c(=O)c32)C1 (stereo unspecified),1.1,2.3
CCOc1ccc(OCCSc2nnnn2-c2ccccc2)cc1,0.3,-0.9
Cc1ccccc1N(C)S(=O)(=O)c1ccc2[nH]cc(C(=O)NCCC(C)C)c(=O)c2c1,0.1,1.2
Cc1ccc(S(=O)(=O)Nc2ccc3c(c2)C(=O)N([C@@H](C)CO)C[C@@H](C)[C@@H](CN(C)C(=O)Nc2cccc4ccccc24)O3)cc1,-0.1,0.0
COC(=O)C1=C(Nc2ccc(F)cc2F)CSC1,-0.4,1.7
COc1ccc2oc(=O)c(-c3nnc(NCc4ccc5c(c4)OCO5)s3)cc2c1,-5.5,3.9
Cc1noc(C)c1NC(=O)N(C)C[C@H]1Oc2ccc(NC(=O)CCCN(C)C)cc2C(=O)N([C@H](C)CO)C[C@H]1C,1.0,1.3
COc1ccc(NC(=O)N(C)C[C@@H]2Oc3c(NC(=O)c4nc5ccccc5s4)cccc3C(=O)N([C@@H](C)CO)C[C@H]2C)cc1,.,-1.7
C[C@H]1CN([C@@H](C)CO)C(=O)c2cccc(NS(=O)(=O)c3cn(C)cn3)c2O[C@H]1CN(C)S(=O)(=O)c1cccs1,.,1.9
C[C@@H]1CN([C@@H](C)CO)C(=O)c2cccc(NC(=O)Nc3ccc4c(c3)OCO4)c2O[C@@H]1CN(C)S(=O)(=O)c1cn(C)cn1,.,-0.3
O=c1oc2ccccc2c2c1nc(C(F)(F)F)n2-c1ccccc1,-0.4,-4.2
Cc1c(C(=O)N(C)C)sc2c1c(=O)n(-c1ccccc1C(F)(F)F)c(=O)n2CC(N)=O,-0.2,11.0
Cc1cc(C(=O)NN)n(C(C)(C)C)n1,1.0,-2.4
O=C(c1ccccc1)N(C(=O)c1ccccc1)C(=O)c1ccccc1,-0.8,0.2
CC(C)COC(=O)C(C)Oc1ccc2c(=O)c(-c3ccccc3)coc2c1 (stereo unspecified),-0.5,0.1
CC12CC3(C)CC(C)(C1)CC(CN=Cc1ccc(O)cc1)(C2)C3,12.8*,3.4
S=C(c1cccs1)N1CCCC1,0.6,5.3
Cc1sc(-n2cccc2)c(C(=O)NC(C)CCc2ccccc2)c1C (stereo unspecified),0.9,9.4

# Arranged by value in A1 inhib (largest number first): three of the compounds above
canonical_smiles | A1 inhib
CC12CC3(C)CC(C)(C1)CC(CN=Cc1ccc(O)cc1)(C2)C3 | 12.8*
O=c1oc2ccccc2c2c1nc(C(F)(F)F)n2-c1ccccc1 | -0.4
O=C(c1ccccc1)N(C(=O)c1ccccc1)C(=O)c1ccccc1 | -0.8

# (cont.)
Structure,A1 inhib,BJeLR viability
Cc1noc(C)c1NC(=O)Nc1ccc2c(c1)C(=O)N([C@H](C)CO)C[C@H](C)[C@H](CN(C)Cc1ccncc1)O2,0.0,-1.2
C[C@H]1CN([C@@H](C)CO)C(=O)c2cccc(NS(=O)(=O)c3ccc(Cl)cc3)c2O[C@H]1CN(C)C(=O)Nc1ccc(C(F)(F)F)cc1,.,11.2
C[C@@H]1CN([C@@H](C)CO)C(=O)c2cc(NS(=O)(=O)c3cccs3)ccc2O[C@@H]1CN(C)C(=O)Nc1ccccc1,-0.1,2.5
C[C@H](CO)N1C[C@H](C)[C@H](CN(C)C(=O)Nc2ccc(C(F)(F)F)cc2)Oc2ccc(NC(=O)Nc3ccc(C(F)(F)F)cc3)cc2C1=O,-0.3,3.9
CNC(=O)c1cc2c(=O)n3cccc(C)c3nc2n1C,0.1,-2.6
C[C@@H]1CN([C@@H](C)CO)C(=O)c2cccc(N(C)C)c2O[C@@H]1CN(C)Cc1ccc(Cl)c(Cl)c1,.,0.2
Cc1ccccc1Cn1c(=O)n(CCCS(=O)(=O)C2CCCCC2)c(=O)c2ccccc21,.,-4.4
CCSc1nc2ccccc2c(=O)n1C1CCOC(C)(C)C1 (stereo unspecified),0.9,-0.2
Cc1ccc(C(=O)Nc2sc3c(c2C(=O)N(C)C)CCCCC3)cc1,0.3,1.7
Cc1ccc(S(=O)(=O)N(C)C[C@H]2Oc3ccc(NC(=O)c4ccncc4)cc3C(=O)N([C@@H](C)CO)C[C@@H]2C)cc1,0.1,0.7
CC(C)NC(=O)Nc1ccc2c(c1)C(=O)N([C@@H](C)CO)C[C@@H](C)[C@H](CN(C)Cc1ccc(-c3ccccc3)cc1)O2,1.7,1.4
C[C@H]1CC(=O)C2=C(C1)C(O)C(O)[C@@]1(O)[C@H]2C(=O)c2cccc(O)c2[C@@H]1O (stereo partly specified),-0.3,-2.6
C[C@@H]1CN([C@H](C)CO)C(=O)c2cc(NC(=O)C3CCCCC3)ccc2O[C@@H]1CN(C)C(=O)Nc1ccc(F)cc1,1.5,1.1
C[C@@H]1CN([C@@H](C)CO)C(=O)c2cc(NC(=O)Nc3ccc(C(F)(F)F)cc3)ccc2O[C@@H]1CN(C)Cc1ccc(Cl)c(Cl)c1,-0.7,-3.8
COc1ccc(S(=O)(=O)N(C)C[C@@H]2Oc3c(NC(=O)Nc4c(C)noc4C)cccc3C(=O)N([C@@H](C)CO)C[C@@H]2C)cc1,.,0.4

# Bioassay records: PubChem, Broad Institute

# Not all compounds are listed (hit frequency here may not be typical).
